Bioassay records deposited in PubChem BioAssay by National Center for Advancing Translational Sciences (NCATS).
Cruzain noTriton: qHTS Assay for Promiscuous and Specific Inhibitors of Cruzain (without detergent); purified cruzain, Z-FR-AMC fluorescence, no detergent; Potency, µM, for inactives: max response, negative = inhibition, hits mostly inhibitors; AID 1476, 2009; 200,000 tested, 2.3% active; Cruzipain (Trypanosoma cruzi), P25779; active = well fitted curve in the direction sought with a large enough effect; inconclusive = small, poorly fitted or top-dose-only effect, or another doubt; inactive = no such curve, though single readings can be large; an effect the other way counts as inactive or inconclusive;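 also: plate controls were enzyme without inhibitor for no effect and buffer without enzyme for full effect; nearly all actives have a fitted effect of over 40% in size; top concentration of the series not given in the record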
Target sequence (P25779 123-467 limits assumed): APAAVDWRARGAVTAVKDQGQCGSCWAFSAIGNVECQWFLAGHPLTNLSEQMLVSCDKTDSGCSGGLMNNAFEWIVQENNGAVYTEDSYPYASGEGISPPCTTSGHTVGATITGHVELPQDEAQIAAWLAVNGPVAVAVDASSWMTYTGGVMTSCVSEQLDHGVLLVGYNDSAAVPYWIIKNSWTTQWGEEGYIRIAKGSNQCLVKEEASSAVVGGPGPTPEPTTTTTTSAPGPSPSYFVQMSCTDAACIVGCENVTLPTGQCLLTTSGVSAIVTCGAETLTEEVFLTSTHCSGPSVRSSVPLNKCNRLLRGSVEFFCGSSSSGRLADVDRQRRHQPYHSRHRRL
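Detergent-free condition (0.00005% Triton X-100) in acetate buffer pH 5.5 with DTT. 1.5 nM enzyme and compound were pre-mixed 15 min, then 2 uM Z-FR-AMC substrate added; reaction progress from fluorescence change between first and third reads (60 s).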
LASV entry inh: qHTS for Inhibitors of binding or entry into cells for Lassa Virus; Lassa virus pseudotype entry inhibition, cell reporter; control for the full effect not named in the record; 300,000 tested, 1.2% active; AID 540256, 2011; Potency, µM (highest dose often 37.9 µM), for the others: top-dose activity change, negative = inhibition, most hits filed as inhibitors; active means well fitted inhibition curve with a large enough effect; inconclusive means small, poorly fitted or top-dose-only effect, or effect the other way; inactive means flat fitted curve, though single readings scatter; tested in HEK293 cells; also: % is scaled to controls: 0 for no effect and ±100 for the full control effect; nearly all actives have a fitted effect of over 50% in size; luciferase read-out
Cruzain inh Det: qHTS Assay for Promiscuous and Specific Inhibitors of Cruzain (with detergent); Cruzipain (Trypanosoma cruzi), P25779; purified cruzain, Z-FR-AMC fluorescence, 0.01% Triton; Potency, µM, inactives show max response, negative = inhibition, usual class: inhibitors; 200,000 tested, 0.43% active; AID 1478, 2009; active = well fitted curve in the direction sought with a large enough effect; inconclusive = small, poorly fitted or top-dose-only effect, or another doubt; inactive = no such curve, though single readings can be large; an effect the other way counts as inactive or inconclusive;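 also: plate controls were neutral wells for no effect and buffer without enzyme for full effect; nearly all actives have a fitted effect of over 40% in size; top concentration of the series not given in the record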
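Detergent-containing arm of a paired screen for aggregation-based inhibition: 0.01% Triton X-100 present. Cruzain at 1.5 nM cleaved 2 uM Z-FR-AMC at pH 5.5 with 5 mM DTT; AMC fluorescence gain over 60 s measured activity.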
Marburg entry inh: qHTS for inhibitors of binding or entry into cells for Marburg Virus; 300,000 tested, 1.8% active; Potency, µM (doses to about 37.8 µM), for the others: at the top dose activity change, negative = inhibition, most hits filed as inhibitors; AID 540276, 2011; Marburg virus pseudotyped entry inhibition, cell reporter; control for the full effect not named in the record; about a third of the inactives were read at about 46 µM; active = well fitted inhibition curve with a large enough effect; inconclusive = small, poorly fitted or top-dose-only effect, or effect the other way; inactive = flat fitted curve, though single readings scatter; tested in HEK293 cells; about a fifth of its hits are not listed in these tables; also: % is scaled to controls: 0 for no effect and ±100 for the full control effect; luciferase read-out
2A StopGo: High Throughput Screening for Foot and Mouth Disease Virus Antivirals | human cells with a luciferase reporter of 2A StopGo recoding; control for the full effect not named in the record | AID 1159524, 2015 | Potency, µM (series often up to 57.9 µM), for the others: top-dose signal change, negative = less light | 410,000 tested, 1.2% active; active = well fitted falling curve with a large enough effect; inconclusive = small, poorly fitted or top-dose-only effect; inactive = no such curve, though single readings can be large or run the other way; tested in HEK293T cells; also: % is scaled to controls: 0 for no effect and ±100 for the full control effect; nearly all actives have a fitted effect of over 45% in size; luciferase light after 4 h
SARS PLpro yeast: qHTS of Yeast-based Assay for SARS-CoV PLP | S. cerevisiae expressing SARS-CoV PLpro, growth rescue; control for the full effect not named in the record | Potency, µM (series often up to 32.9 µM), for the others: at the top dose activity, positive = growth rescue | 330,000 tested, 0.19% active | AID 485353, 2010; also: 0% is about no effect; nearly all actives have a fitted effect of over 55% in size; growth read by luminescence after 48 h
RE007 growth inh: qHTS Assay for Inhibitors of the HIV-1 protein Vpr; Potency, µM (top dose mostly 92.2 µM), for the others: at the top dose activity change, negative = less growth; 360,000 tested, 0.21% active; S. pombe RE007 Vpr strain, BacTiter-Glo ATP luminescence, 24 h; control for the full effect not named in the record; active = well fitted falling curve with a large enough effect; inconclusive = small, poorly fitted or top-dose-only effect; inactive = no such curve, though single readings can be large or run the other way;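 also: % is scaled to controls: 0 for no effect and ±100 for the full control effect; nearly all actives have a fitted effect of over 50% in size; the assay follows cell death caused by Vpr and the record does not say whether a fall means rescue or toxicity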
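Fission yeast RE007 carrying one integrated HIV-1 vpr copy, seeded at OD 0.01 in PMG+AL medium with 23 nL pinned compound. Grown 24 h at 30 degrees; viability read by BacTiter-Glo luminescence after 5 min.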
NS1 function inh: qHTS Assay for Inhibitors of Influenza NS1 Protein Function. AID 2326, 2010. S. cerevisiae slowed by influenza A NS1, growth recovery by OD600. Potency, µM (titrated, usually from 46.1 µM), for the others: at the highest dose activity, positive = more growth. 270,000 tested, 0.4% active; also: actives are rising curves; nearly all actives have a fitted effect of over 50% in size
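In this qHTS, NS1 from influenza A is expressed in budding yeast, where it slows growth. Cells are switched from glucose to 2% galactose medium (pH 6.0, -URA), treated with compound, and growth recovery is read at OD600.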
* marks the source's active call; other numbers are inactive results; ? = inconclusive; nt = no result given; & = joins results of further samples; [ ] = dose if it differs, or a comment. Unless noted, calls follow the shape of the dose curve; as a rule, active means well fitted rising curve with a large enough effect; inconclusive means small, poorly fitted or top-dose-only effect; inactive means no such curve, though single readings can be large or run the other way. Potency is read from the fitted curve at half-maximal effect. Hits appear at their usual frequency, and some 4.8% of all compounds hit somewhere here.

Results follow in this order: Cruzain noTriton	LASV entry inh	Cruzain inh Det	Marburg entry inh	2A StopGo	SARS PLpro yeast	RE007 growth inh	NS1 function inh
- COc1ccc(OC)c(NC(=O)CC2SC(=NCc3ccccc3)NC2=O)c1 (stereo not given)
    nt	-10.6%[46.1 µM]	nt	?	-12.8%	8.5%	-0.2%	nt
- CCC(=O)N1N=C(c2ccc(C)cc2)CC1c1ccco1 (stereo not given)
    nt	nt	nt	nt	9.3%	0.4%	-6.6%	-2.6%
- CC(C)(C)c1ccc(S(=O)(=O)N2CCN(Cc3noc(CCC(=O)N4CCCCC4)n3)CC2)cc1
    ?	4.9%[46.1 µM]	-2.3%	nt	-27.4%	nt	nt	nt
- CC(=O)Nc1ccccc1C(=O)C(=O)Nc1ccc(C)c(C)c1
    9.8%	19.5%	-0.6%	?	40.2%[activator]	16.8%	-7.7%	2.8%
- COc1ccc(N2C(=O)C3CCCN3C2c2ccccc2OC)cc1 (stereo not given)
    15.7%	nt	-1.2%	nt	-16.3%	4.3%	3.8%	-4.0%
- CC(=O)NC1(c2nnnn2CCOC(=O)Nc2ccc(Cl)cc2)CCCCC1
    7.3%	7.1%	6.1%	?	-6.2%	10.7%	3.4%	-55.6%
- COc1ccc(C(=O)Oc2c(Sc3ccccc3)c(C)nn2-c2ccccc2)c(OC)c1
    -0.8%	?	-1.7%	?	-24.3%	nt	nt	nt
- COc1cccc(C2C3=C(N=C4SCC(=O)N42)c2ccccc2CC3)c1OC (stereo not given)
    ?	-4.0%	-1.2%	?	?	26.9%	17.1%	3.6%
- CN(C)S(=O)(=O)c1cccc(NC(=O)c2ccncc2)c1
    1.3%	15.8%	1.4%	?	-29.3%	11.0%	13.0%	13.9%
- Brc1ccc(CN2CCc3nc(Nc4ccccc4)ncc3C2)s1
    ?	16.6%[46.1 µM]	-7.0%	nt	16.5%	nt	nt	nt
- C[C@]12CC[C@@H]3c4cc(O)c(O)cc4CC[C@H]3[C@@H]1CC[C@@H]2O
    nt	nt	nt	nt	-3.7%	1.9%	-14.9%[18.4 µM]	21.8%
- COc1ccc(C2(CNC(=O)c3ccccc3)CCCC2)cc1OC
    nt	16.8%	nt	-0.8%	?	0.3%	4.4%	-7.4%
- CC1CN(C2CCN(S(=O)(=O)c3ccc4ccccc4c3)CC2)CC(C)O1 (stereo not given)
    -5.8%	-12.3%	5.0%	-29.1%	-13.3%	2.5%	-2.8%	-53.7%
- Cc1onc(-c2c(F)cccc2Cl)c1C(=O)N1C=CC(C(F)(F)Cl)=NCC1
    -4.7%	5.4%	-0.7%	10.1%	-3.9%	-5.0%	7.3%	10.1%
- CCCn1c(N)c(Br)c(=O)[nH]c1=O
    -13.8%	-14.4%	-1.3%	1.2%	-10.5%	21.9%	-1.0%	-3.1%

(next part)
Results follow in this order: Cruzain noTriton	LASV entry inh	Cruzain inh Det	Marburg entry inh	2A StopGo	SARS PLpro yeast	RE007 growth inh	NS1 function inh
- Cc1ccc(-n2[nH]c(C)c(/C=N/n3c(C)nc4ccccc4c3=O)c2=O)cc1
    29.3%	?	-1.5%	23.6%	1.3%	-40.0%	?	-63.4%
- CCn1c(SCC(=O)N/N=C/c2ccccc2OCC(=O)O)nnc1-c1ccc(C(C)(C)C)cc1
    nt	1.5%	nt	5.5%[46.1 µM]	-10.2%	0.9%	6.4%	13.7%
- CN(C)CCCNC(=O)C1CCNCC1
    -18.9%	14.7%	6.7%	16.6%	11.6%	3.7%	-0.7%	-1.3%
- CC(C)CNC(=O)C1C2C=CC(C2)C1C(=O)O (stereo not given)
    -6.4%	0.4%	-6.8%	5.2%	-4.3%	0.6%	-4.7%	1.4%
- Cc1ccc(S(=O)(=O)N(C)c2ccc(OCC(=O)Nc3nc4c(ccc5ccccc54)s3)cc2)cc1
    3.98µM*	1.8%	-0.7%	1.41µM*	3.5%	-2.5%	4.0%	0.5%
- CCNC(=O)C1CCCN1S(=O)(=O)c1ccc2ccccc2c1 (stereo not given)
    nt	nt	nt	nt	2.3%	-0.1%	4.9%	-0.2%
- CCNC(=O)CC1C(=O)N(c2ccc(F)cc2)C(=O)N1CCC(C)C (stereo not given)
    -5.9%	6.0%	-0.8%	6.4%	4.6%	2.6%	-3.7%	1.3%
- COc1cccc(NC(=O)C(NCCc2ccc(S(N)(=O)=O)cc2)c2ccccc2)c1 (stereo not given)
    nt	-5.1%	nt	-14.4%[46.1 µM]	-2.5%	0.3%	0.9%	4.7%
- O=C(CSc1nnc2c(Cl)cc(Cl)cn12)N1CCN(S(=O)(=O)c2ccccc2)CC1
    -6.7%	0.0%	0.7%	?	-8.3%	-2.5%	1.8%	-0.9%
- COc1ccc(-n2c(SCC(=O)Nc3ccccc3OC)nc(O)cc2=O)cc1
    nt	16.3%	nt	28.4%	-11.9%	1.3%	5.5%	18.9%
- Cn1c(-c2ccc(Cl)cc2)cnc1N
    ?	-10.9%	-0.5%	25.3%	3.8%	-5.4%	-3.4%[3.69 µM]	-2.7%
- COc1ccc(CCN2CC(C(=O)Nc3ccccc3F)CC2=O)cc1OC (stereo not given)
    nt	-2.5%	nt	6.5%[46.1 µM]	4.6%	2.4%	-6.6%	nt
- COc1ccc(-n2c(-c3ccccc3)nnc2-c2ccc(Cl)cc2)cc1
    -1.3%	0.5%	8.0%	10.3%[46.1 µM]	-12.9%	-2.0%	6.4%	9.7%
- Cn1c2c(c(=O)n(C)c1=O)C1c3cc(Cl)ccc3OCC1CO2 (stereo not given)
    -2.0%	2.9%	4.3%	?	-16.7%	2.0%	17.2%	9.4%
- CCCCc1cc(=O)oc2c3c(cc(OCC(=O)NCCCO)c12)OC(C)(C)CC3
    nt	25.2%[46.1 µM]	nt	10.2%[46.1 µM]	-1.9%	-0.9%	18.0%	4.0%

(further entries)
Results follow in this order: Cruzain noTriton	LASV entry inh	Cruzain inh Det	Marburg entry inh	2A StopGo	SARS PLpro yeast	RE007 growth inh	NS1 function inh
- Cc1ccc(S(=O)(=O)N2CCC(C(=O)OC(C)C(=O)NCc3ccc4c(c3)OCO4)CC2)cc1 (stereo not given)
    6.5%	?	0.4%	-4.3%&-4.3%	-8.6%	0.1%	0.2%	-20.3%
- COc1ccc2ccccc2c1CN1CCN(C)CC1
    9.7%	-8.6%	0.0%	-8.0%	17.3%	3.3%	17.8%	3.4%
- COc1ccccc1[C@@H]1C(c2ccccc2)=NN(c2ccc(Br)cc2)[C@H]1C(=O)N1CCOC1=O
    17.8µM*	nt	0.0%	nt	-23.9%	17.3%	-11.1%	nt
- C=CCN(C(=O)CNC(=O)c1cccs1)C(C(=O)NC1CCCCC1)c1cccnc1 (stereo not given)
    nt	17.0%[46.1 µM]	nt	-4.4%[46.1 µM]	-0.3%	0.5%	3.5%	-1.0%
- CSCCC(NS(=O)(=O)c1ccc2ccccc2c1)C(=O)OCC(=O)c1ccc(C(C)C)cc1 (stereo not given)
    ?	?	-6.8%	-11.0%	-4.0%	-6.6%	9.8%	16.6%
- CCSc1nnc(NC(=O)COc2ccc3ccccc3c2)s1
    ?	10.9%	2.3%	11.8%	-12.0%	3.9%	-12.1%	-6.3%
- CCC(C)NC(=O)c1c(N)n(Cc2ccc3c(c2)OCO3)c2nc3ccccc3nc12 (stereo not given)
    -8.3%	1.5%	-0.6%	?	-9.3%	-1.2%	-7.9%	15.4%
- COc1ccc(S(=O)(=O)N2CCOCC2)cc1NC(=O)CN1CCC(Cc2ccccc2)CC1
    -8.9%	10µM*	-0.6%	?	-16.2%	1.0%	-14.5%	-30.4%
- O=S(=O)(Nc1ccc2c(c1)OCCO2)c1cccc(F)c1
    nt	nt	nt	nt	-17.6%	2.3%	0.8%	4.0%
- Cc1ccc(NC(=O)/C(C#N)=C/c2cc(C)n(-c3ccc(F)cc3)c2C)cc1C
    -0.8%	19.1%[46.1 µM]	-1.8%	nt	-13.4%	nt	nt	nt
- CCOc1ccc(N(CC)S(=O)(=O)N2CCCC(C(=O)NCCc3ccccc3OC)C2)cc1 (stereo not given)
    ?	?	-4.0%	nt	?	nt	nt	nt
- Nc1ncnc(Nc2ccccc2Oc2ccccc2)n1
    nt	7.9%[46.1 µM]	nt	5.9%	2.1%	nt	-6.3%	nt
- COC(=O)c1ccc(C(=O)OC)c(NC(=O)CSc2ccccn2)c1
    1.8%	0.7%	-4.1%	3.2%	-6.2%	-7.7%	-16.4%	-4.6%
- O=C(Nc1ccc(Br)cc1)c1ccc(-n2cnnn2)cc1
    nt	10.9%[46.1 µM]	nt	29.9%[46.1 µM]	14.2%	-5.7%	-6.8%	4.4%
- O=C(Nc1ccc2c(c1)CCCN2C(=O)c1ccccc1)c1ccccc1
    nt	?	nt	?	-18.5%	-69.6%	?	-15.8%
- Cc1ccccc1CCN(C(=O)Cn1nnc2ccccc21)C(C(=O)NC(C)(C)C)c1ccsc1 (stereo not given)
    -12.1%	?	0.1%	-8.1%	34.2%[activator]	-6.8%	9.7%	3.9%
- CCCCCCC(=O)O
    -5.8%	nt	0.3%	nt	-15.0%	1.3%	-9.9%	nt
